GLS inh: glutaminase GLS (human) inhibition; GLS enzymatic activity, qHTS titration; Potency, µM (series often up to 45.5 µM), for the others: top-dose activity change, negative = inhibition, most hits filed as inhibitors; hit rate 0.21% among 410,000; AID 624170; further: potency means the concentration at half of the fitted maximal effect; on the % scale 0 is the no-effect control and ±100 the full control effect
Target sequence (O94925 whole entry, looked up): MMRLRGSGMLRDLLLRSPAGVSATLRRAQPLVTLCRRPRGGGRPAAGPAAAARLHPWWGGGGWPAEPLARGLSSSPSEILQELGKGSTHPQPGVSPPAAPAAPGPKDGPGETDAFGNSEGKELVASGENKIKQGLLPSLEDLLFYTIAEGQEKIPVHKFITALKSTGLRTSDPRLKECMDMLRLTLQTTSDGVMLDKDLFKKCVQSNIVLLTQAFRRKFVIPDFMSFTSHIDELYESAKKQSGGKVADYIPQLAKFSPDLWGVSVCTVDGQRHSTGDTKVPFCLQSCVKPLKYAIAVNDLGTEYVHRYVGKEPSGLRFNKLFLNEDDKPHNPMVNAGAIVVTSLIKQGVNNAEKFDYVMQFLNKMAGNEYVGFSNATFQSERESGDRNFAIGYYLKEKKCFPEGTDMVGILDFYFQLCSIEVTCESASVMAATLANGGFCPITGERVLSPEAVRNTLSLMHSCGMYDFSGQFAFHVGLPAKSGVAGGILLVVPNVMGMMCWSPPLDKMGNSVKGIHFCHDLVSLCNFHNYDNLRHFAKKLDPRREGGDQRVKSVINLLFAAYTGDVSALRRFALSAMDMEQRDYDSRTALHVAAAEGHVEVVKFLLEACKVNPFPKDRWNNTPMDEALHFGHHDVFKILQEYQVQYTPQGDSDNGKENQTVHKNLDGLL
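Glutamate formation by hKGA was monitored fluorometrically using coupled glutamate oxidase, HRP and Amplex Red. Substrate was added as 1 mM L-glutamine solution; incubation was 30 min at RT after an initial read.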
POLH inh: blocks human DNA polymerase eta activity; recombinant Pol eta, fluorescent DNA replication assay; Potency, µM (titrated, usually from 114 µM), for the others: at the top dose activity change, negative = inhibition, actives largely listed as inhibitors; hit rate 1.2% among 390,000; further: potency means the concentration at half of the fitted maximal effect; on the % scale 0 is the no-effect control and ±100 the full control effect
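Fluorescent replication assay: 50 nM final substrate added after a 15 min room-temperature compound preincubation with 10 nM enzyme. Signal taken at 0 min and again at 10 min.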
HP1b binding inh: inhibitors of HP1-beta chromodomain binding to methylated histone tails; P83916; AlphaScreen HP1-beta / biotin-H3K9me3 peptide binding; Potency, µM (highest dose often 114 µM), inactives show top-dose activity change, negative = inhibition, hits mostly inhibitors; hit rate 0.56% among 390,000; further: potency means the concentration at half of the fitted maximal effect; nearly all actives have a fitted effect of over 70% in size; inactives centre near 23
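AlphaScreen: HP1-beta (50 nM) preformed 30 min with biotin-H3(1-18)K9me3 peptide (50 nM) in PBS pH 7.4, 0.01% Tween-20. Compound added for 30 min at RT, then streptavidin donor/nickel chelate acceptor beads (10 ug/mL) for 30 min.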
PGK inhibitor: blocks T. brucei phosphoglycerate kinase; P07378; PGK/GAPDH coupled, Kinase-Glo luminescence, 60 min; Potency, µM (doses to about 57.5 µM), for the others: at the top dose activity change, negative = inhibition, hits mostly inhibitors; hit rate 0.043% among 380,000; further: potency means the concentration at half of the fitted maximal effect; on the % scale 0 is the no-effect control and ±100 the full control effect; nearly all actives have a fitted effect of over 60% in size
Target sequence (P07378 whole entry, looked up): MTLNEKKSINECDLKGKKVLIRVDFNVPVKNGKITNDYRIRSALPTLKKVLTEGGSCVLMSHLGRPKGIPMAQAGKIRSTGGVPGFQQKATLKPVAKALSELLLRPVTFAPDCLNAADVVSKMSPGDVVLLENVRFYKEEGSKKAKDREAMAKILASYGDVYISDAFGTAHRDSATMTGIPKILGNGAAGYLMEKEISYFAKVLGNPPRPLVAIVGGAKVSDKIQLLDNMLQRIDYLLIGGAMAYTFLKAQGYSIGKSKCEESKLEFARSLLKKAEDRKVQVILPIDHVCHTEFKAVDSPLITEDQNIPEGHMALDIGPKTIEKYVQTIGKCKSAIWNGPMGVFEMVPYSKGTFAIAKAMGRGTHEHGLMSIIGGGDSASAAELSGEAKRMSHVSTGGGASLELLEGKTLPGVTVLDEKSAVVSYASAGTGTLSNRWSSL
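Recombinant glycosomal PGK reaction used 1,3-bisphosphoglycerate generated in-well by GAPDH (100nM final) in 100mM TEA pH 7.6, 5mM MgCl2, 0.01% Tween-20. After 60 minutes at room temperature, ATP was read by Kinase-Glo Plus luminescence end-point.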
Pin1 inh: human Pin1 inhibition | hit rate 0.009% among 390,000 | Potency, µM (titrated, usually from 115 µM), for the others: at the top dose activity, negative = inhibition, actives largely listed as inhibitors | Pin1 FP peptide displacement, HiFluor488, 10 min; active means well fitted inhibition curve with a large enough effect in the polarisation, with a control signal flat, not every such curve was filed as active; inconclusive means small, poorly fitted or top-dose-only effect, or effect the other way, or a change in a side signal; inactive means no such curve, though single readings can be large or run the other way; the % refers to the polarisation; further: potency means the concentration at half of the fitted maximal effect; on the % scale 0 is the no-effect control and ±100 the full control effect
G9a inh: G9a (human) methyltransferase inhibition. G9a H3K9 monomethylation, AlphaScreen, 2 h. hit rate 8.8% among 350,000. Q96KQ7. Potency, µM (titrated, usually from 102 µM), for inactives: at the highest dose activity, negative = inhibition, usual class: inhibitors; further: potency means the concentration at half of the fitted maximal effect; on the % scale 0 is the no-effect control and ±100 the full control effect; nearly all actives have a fitted effect of over 75% in size
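Quantitative HTS format: methyltransferase activity on a biotin-tagged H3K9 peptide is measured by AlphaScreen, using a rabbit anti-monomethyl-H3K9 antibody with streptavidin donor and anti-IgG acceptor beads. Final levels are 20 nM enzyme, 500 nM peptide, 20 uM SAM; 2 h RT.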
PI4K2A inh: blocks human PI4K2A kinase activity; purified PI4K2A, ADP-Glo luminescence, 1 h; hits give low values; AID 1346378; activity change, negative = inhibition, % at 76.9 µM; hit rate 0.13% among 420,000; in the data active means activity change below about -50%; inconclusive means mostly about -30% to -49%;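 further: -100% = wells without enzyme as full effect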
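Compounds are screened against recombinant PI4K2A using PI as substrate and ATP, the latter dispensed at 300 microM. Reactions run one hour at ambient temperature before ADP-Glo detection; full inhibition defined by wells lacking enzyme.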
JMJD2A Tudor inh: inhibitors of human JMJD2A Tudor domain; O75164; Potency, µM (top dose mostly 114 µM), inactives show at the highest dose activity change, negative = inhibition, hits mostly inhibitors; hit rate 4.4% among 390,000; AlphaScreen JMJD2A-Tudor / H3K4me3 peptide binding; further: potency means the concentration at half of the fitted maximal effect; on the % scale 0 is the no-effect control and ±100 the full control effect; nearly all actives have a fitted effect of over 50% in size
* marks the source's active call; other numbers are inactive results; i = inactive; ? = inconclusive; . = no result given; & = joins results of further samples; [ ] = another dose, or the depositor's remark. Unless noted, the call rests on the fitted dose curve; in most records, active means well fitted curve in the direction sought with a large enough effect; inconclusive means small, poorly fitted or top-dose-only effect, or another doubt; inactive means no such curve, though single readings can be large; an effect the other way counts as inactive or inconclusive.

Below each compound – GLS inh | POLH inh | HP1b binding inh | PGK inhibitor | Pin1 inh | G9a inh | PI4K2A inh | JMJD2A Tudor inh
- O=C(COc1ccccc1Cl)c1ccc[nH]1
 : 0% | -18% | -16% | -4% | 36%[activator] | ? | -5 | -35%
- O=[N+]([O-])c1nn(-c2ccc3c(c2)OCCO3)n(O)c1=NCCC1=CCCCC1
 : 1% | -16% | ? | -7% | -1% | 20µM* | 1 | ?
- COC(=O)c1c(NC(=O)CN2CCN(Cc3ccc4c(c3)OCO4)CC2)sc(C)c1C
 : . | 1% | 10% | -2% | 0% | -50%[59 µM] | -2 | -23%
- C/C(=N\NC(=O)c1ccccc1C)c1cccnc1
 : -7% | -10% | 61%[activator] | . | -6% | 24% | -6 | 2%
- COc1ccc(NS(=O)(=O)c2ccc(-n3nnc4ccccc43)c([N+](=O)[O-])c2)cc1
 : 3% | -13% | -14% | -3% | -10% | -31% | 1 | ?
- C=C(C)COc1ccc(-c2nc(N)ncc2-c2ccc(OC)c(OC)c2)c(O)c1
 : 15% | ? | -3% | -3% | 1% | -14% | 6 | ?
- C=CCN1C(=O)c2ccc(C(=O)N3CCN(c4ccccc4OC)CC3)cc2C1=O
 : -1% | -7% | 11% | -6% | -18% | -20% | 5 | -21%
- O=S(=O)(Nc1ccc(-c2cn3c(n2)SCC3)cc1)c1ccccc1F
 : 21% | 0% | 5% | 8% | 6% | ? | 1 | ?
- Cn1c(=O)n(C)c2cc(N3CCCC3)c(NC(=O)c3cccc(F)c3)cc21
 : -21% | -7% | 22% | -1% | 1% | 45µM* | 4 | -24%
- CN1C(=O)/C(=C/c2cccc(Cl)c2)Sc2ccc(C(=O)N3CCCC3)cc21
 : -3% | -15% | 46%[activator] | -5% | 11% | ? | -1 | -5%
- O=C(NCCc1c[nH]c2ccccc12)c1cnc2sccn2c1=O
 : 10% | -3% | 55% | -4% | 0% | ? | -2 | -18%
- Cc1c(C(=O)Nc2cccc([N+](=O)[O-])c2)sc2ncn(CC(=O)N3CCOCC3)c(=O)c12
 : -2% | -2% | 22% | 5% | 4% | 14% | 9 | -12%
- COc1ccc(C(=S)NC2CCCCC2)cc1
 : -18% | 0% | ? | -3% | 8% | 10µM* | 0 | -33%
- O=S(=O)(Nc1ccc(C(F)(F)F)cc1)c1ccc2c(c1)OCCO2
 : -5% | -12% | 33% | i | -3% | 5%[59 µM] | 1 | -10%
- COc1ccc(CNc2oc(-c3ccc(COc4ccccc4C)o3)nc2C#N)cc1
 : -6% | -15% | -25% | -1% | 11% | ? | -1 | ?
- Cc1ccn2c(Nc3ccc4c(c3)OCO4)c(-c3ccc(O)cc3)nc2c1
 : 13%&14% | -14%&-24% | 24%&19% | -3%&-10% | -3%&1% | 35µM* | 2&3 | -12%&-26%
- C(=C\n1nnc2ccccc21)/c1ccc[nH]1
 : -4% | 50µM* | -16% | -9% | -16% | ? | -19 | ?
- CN(Cc1ccccc1)S(=O)(=O)c1ccc(F)c(C(=O)Nc2cc(Cl)cc(Cl)c2)c1
 : 4% | -12% | 38% | -1% | -2% | 4%[59 µM] | 1 | -15%
- CCOc1cc(/C=C2\SC(=N)N(c3nonc3N)C2=O)ccc1OCCN1CCOCC1
 : 4% | -26% | 30% | i | ? | . | -4 | -25%
- Cc1ccc(NC(=O)c2cnccn2)nc1
 : -6% | -14% | 31% | -15% | -8% | 45µM* | 1 | -16%

Some of these compounds in order of count of non-hydrogen atoms, rising:
Below each compound – GLS inh | POLH inh | HP1b binding inh | PGK inhibitor | Pin1 inh | G9a inh | PI4K2A inh | JMJD2A Tudor inh
- Cc1ccc(NC(=O)c2cnccn2)nc1
 : -6% | -14% | 31% | -15% | -8% | 45µM* | 1 | -16%
- O=C(NCCc1c[nH]c2ccccc12)c1cnc2sccn2c1=O
 : 10% | -3% | 55% | -4% | 0% | ? | -2 | -18%
- Cn1c(=O)n(C)c2cc(N3CCCC3)c(NC(=O)c3cccc(F)c3)cc21
 : -21% | -7% | 22% | -1% | 1% | 45µM* | 4 | -24%

New compounds follow.
Below each compound – GLS inh | POLH inh | HP1b binding inh | PGK inhibitor | Pin1 inh | G9a inh | PI4K2A inh | JMJD2A Tudor inh
- N#Cc1nc(-c2ccccc2Cl)oc1N1CCOCC1
 : 4% | -13% | ? | i[11.5 µM] | 3% | -43%[59 µM] | -1 | -34%
- COc1ccc(C2CC2/C(C)=N/OC(=O)C2CC2)cc1 (configuration not stated)
 : 9% | 1% | 43%[activator] | 9% | 0% | 31% | 6 | 8%
- COc1ccc(OC)c(NC(=S)NCCSc2ccc(C)cc2)c1
 : 9% | -26% | ? | -17% | 1% | -12%[59 µM] | 1 | ?
- CCOc1ccc(N(CC(=O)NC2CCCCCC2)S(=O)(=O)c2ccccc2)cc1
 : 1% | -11% | 18% | 0% | -4% | -12% | 2 | 1%
- COc1ccc(CNc2oc(COc3ccccc3)nc2C#N)cc1
 : 6% | -19% | ? | i | 19% | 6%[0.0925 µM] | 7 | -15%[57.1 µM]
- Clc1ccc(-c2nc3ccccn3c2CN2CCSCC2)cc1
 : -8% | -18% | -4% | -3% | 2% | . | 3 | ?
- c1ccn2cc(-c3ccc4c(c3)OCO4)cc2c1
 : ? | -14% | -2% | -4% | -1% | -129%[59 µM] | -11 | ?
- O=C(NCc1cccnc1)C1CC(c2ccc(F)cc2)=NO1 (configuration not stated)
 : 1% | -1% | 43%[activator] | -3% | -1% | -1%[59 µM] | -1 | 3%
- Cc1cc(NC(=O)/C=C\C(=O)O)c([N+](=O)[O-])cc1C
 : 5% | -20% | 26% | -9% | -8% | -39%[59 µM] | 0 | 1%
- CC(C)(C)c1ccc2c(c1)OC(C(=O)N/N=C\c1ccc[nH]1)CO2 (configuration not stated)
 : 1% | -18% | ? | 8% | ? | 50µM* | 2 | ?
- CCOc1ccc(C(=O)Nc2nnc(C3=COCCO3)o2)cc1
 : 19% | 0% | 26% | 8% | 4% | . | -12 | ?
- CN1CCN(c2nc(-c3ccccc3)nc3c2oc2ccccc23)CC1
 : 3% | -12% | 20% | 1% | -1% | -34%[59 µM] | 6 | -14%
- CCN(CC)C(=S)NC(=O)c1ccc(OC)c(Br)c1
 : -18% | -22% | 19% | i | 2% | ? | 5 | -21%
- COc1ccc(-c2onc(C)c2-c2ccc(C(=O)OC(C)C)o2)c(O)c1
 : -6% | -28% | 2% | 3% | -1% | ? | -5 | -36%
- CC1CC=CC2C1C(=O)N(Cc1ccccc1)C2c1cccc([N+](=O)[O-])c1 (configuration not stated)
 : . | . | -15% | . | -2% | . | . | ?
- O=C(O)COc1ccc(Nc2ccccc2)cc1
 : 2% | -5% | 7% | -3% | 4% | 45µM* | 3 | -31%
- COc1cccc(CNc2nccn(-c3cc(C)cc(C)c3)c2=O)c1
 : 2% | -14% | ? | 1% | 2% | ? | -2 | -28%
- COc1cc(C(=O)N[C@H](C(=O)NC(C)C23CC4CC(CC(C4)C2)C3)C(C)C)cc(OC)c1OC (some centres not stated)
 : 1% | -22% | 23% | -1% | -6% | 14% | 5 | -14%
- Cc1cccc(C(=O)Nc2c(C(=O)N3CCN(c4ccc(F)cc4)CC3)oc3ccccc23)c1
 : 8% | -3% | 25% | 7% | -1% | -33%[59 µM] | 4 | -10%
- Fc1ccccc1/C=C1\CCCC2=C1NC(=S)NC2c1ccccc1F (configuration not stated)
 : 0% | -7% | ? | i | -1% | 35µM* | -2 | -29%[11.4 µM]
- N#Cc1ccc(NC(=O)C2CC(c3ccc(F)cc3)=NO2)cc1 (configuration not stated)
 : -6% | -5% | 51%[activator] | -9% | 1% | 0% | 5 | -9%
- CC(C)CN1C(=O)/C(=C/c2ccco2)NC1=S
 : ? | -3% | ? | -6% | ? | 40µM* | -25 | ?
- CC(=O)c1cccc(NC(=O)Nc2cc3c(cc2N2CCCC2)n(C)c(=O)n3C)c1
 : 21% | -20% | -9% | i | -3% | -24%[59 µM] | -8 | ?
- O=C(Cc1c[nH]c2ccccc12)OCCOC(=O)Cc1c[nH]c2ccccc12
 : 41%[activator] | -12% | -19% | -5% | 5% | ? | 1 | ?
- CC(C)Nc1oc(Cc2cccc3ccccc23)nc1C#N
 : 5% | -15% | ? | -8% | 14% | 45µM* | 3 | ?
- Cc1cc(-c2ccc([N+](=O)[O-])cc2)nc2ccccc12
 : 6% | -2% | -16% | -10% | -2% | ? | -5 | ?
- Cc1c(Br)cccc1NC(=O)c1sccc1-n1cccc1
 : 1% | -16% | 4% | -4% | 3% | ? | 0 | 2%
- CCOC(=O)CCCn1ncn2c(cc3occc32)c1=O
 : -2% | 0% | 35% | i | 0% | -2% | 3 | -2%
- O=c1nc(/C=C/c2cccn2-c2ccc([N+](=O)[O-])cc2)cc(C(F)(F)F)[nH]1
 : 4% | 45µM* | -22% | -2% | 85%[activator] | ? | -17 | ?
- Cn1nc(C(=O)Nc2ccccc2N2CCCC2)c2ccccc2c1=O
 : 9% | 2% | -18% | 11% | ? | ? | -1 | ?
- Clc1ccc(Cn2c(CN3CCCC3)nc3ccccc32)cc1
 : -2%[20 µM] | -5%[57.1 µM] | . | . | . | -14%[59 µM] | -5&-2 | .
- CCOC(=O)c1oc2ccc(S(=O)(=O)Nc3ccc4c(c3)n(C)c(=O)n4C)cc2c1C
 : 10% | -14% | 3% | -1% | 0% | 18%[12.7 µM] | 1 | -17%
- O=C(CCS(=O)(=O)c1ccc(Br)cc1)NC1CCCCCC1
 : -18% | 25µM* | 47%[activator] | -28% | 5% | 25µM* | 0 | 14%
- O=C(O)c1ccc(-n2c(O)c(C=C3N=c4ccccc4=N3)sc2=S)cc1
 : 15% | -23% | -8% | -8% | -4% | ? | -6 | ?
- COc1ccc(-c2cn(-c3ccc(C)cc3C)c(=S)[nH]2)cc1OC
 : 1% | -14% | ? | 6% | -11% | ? | 5 | ?
- COCc1cc(=O)[nH]c(-c2csc(C)n2)n1
 : 2% | -14% | 2% | -3% | -1% | . | -3 | ?
- COc1ccc(C2SCC(=O)N2CCc2ccc(OC)c(OC)c2)cc1 (configuration not stated)
 : -8% | -13% | 32% | 0% | 1% | 11µM* | 4 | -21%
- O=C(NCc1ccc(Cl)cc1)c1ccc(COCC(F)(F)F)o1
 : 14% | -16% | 2% | i | -2% | 4%[12.7 µM] | -4 | -10%
- COc1cccc(Nc2ccc([N+](=O)[O-])c3nonc23)c1
 : 6% | -18% | ? | -3% | 36%[activator] | 22µM* | -15 | ?

A portion of the library. The share of hits here may be higher or lower than overall.
